Source: PubChem BioAssay
TRPML1 agonist: qHTS for Agonists of the Human Mucolipin Transient Receptor Potential 1 (TRPML1). AID 624414, 2012. TRPML1-expressing cells, Ca2+ dye fluorescence, FDSS; host cell line not named in the record; reference of the full effect not given here. activation, % (test concentration not listed). actives 0.12% (n = 410,000); in the data active = activation above about 50%; inconclusive = about 30% to 50%; inactive = below about 30%; further: 0% is about no effect; the text of the record puts the active cut at 80%
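Kinetic FDSS Ca2+ read in Tet-induced TRPML1-DL cells (ABD Ca8 dye plus quencher, 45-90 min RT loading): baseline, then compound, then 110 s agonist window; EC80 agonist 54-4 at 4uM final added afterwards for a 110 s antagonist window.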
Menin-MLL FL inh: qHTS Assay for Inhibitors Targeting the Menin-MLL Interaction in MLL Related Leukemias: Competition With Fluorescein Labeled MLL-derived Peptide; FP activity change, % at 61.4 µM; 290,000 tested, under 10 active; Fluorescence polarization, fluorescein-MLL peptide displacement from menin; inconclusive = falling polarisation curve, or a change in total fluorescence; inactive = total fluorescence flat and polarisation flat or rising; no compound was filed as active; the % refers to the polarisation; negative = inhibition;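 further: % of control where 0% means no effect; inhibitors lower the polarisation; unlabelled MLL peptide was the positive control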
ClpP mod: qHTS Assay for Activators of ClpP. purified B. subtilis ClpP, FRET peptide cleavage, 20 min. Potency, µM (titrated, usually from 57.5 µM), inactives show top-dose activity change, negative = active. actives 1.9% (n = 340,000); active = well fitted falling curve with a large enough effect; inconclusive = small, poorly fitted or top-dose-only effect; inactive = no such curve, though single readings can be large or run the other way; further: potency means the concentration at half of the fitted maximal effect; the source files actives as falling curves though it sought activators and does not explain the sign; nearly all actives have a fitted effect of over 65% in size; many hits overshoot -100%
Target sequence (P80244 whole entry, looked up): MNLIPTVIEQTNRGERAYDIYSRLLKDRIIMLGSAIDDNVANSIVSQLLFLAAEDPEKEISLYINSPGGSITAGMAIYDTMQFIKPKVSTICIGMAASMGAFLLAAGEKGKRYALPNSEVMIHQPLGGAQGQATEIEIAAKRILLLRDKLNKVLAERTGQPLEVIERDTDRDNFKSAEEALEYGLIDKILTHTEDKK
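Purified B. subtilis ClpP, 10 microg/mL final in Tris/HCl pH8 with KCl, BSA, glycerol and Tween-20, cleaved an Abz/nitrotyrosine-quenched decapeptide. Fluorescence (ex 320, em 430) was read at 0 and 20 min at room temperature. Delta was normalized to 5.8 microM ADEP and DMSO/no-enzyme controls.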
TRPV1 PAM: HTS Assay for Compounds that Act as Potentiators of the Vanilloid Receptor 1. potentiation, % at 8.33 µM. TRPV1-expressing cells, Fluo-8 calcium influx, capsaicin EC20 potentiation; host cell line not named in the record; control for the full effect not named in the record. actives 0.02% (n = 320,000); active means potentiation above 80%; inconclusive means 30% to 80%; inactive means below 30%; further: 0% is about no effect
Target sequence (Q8NER1 whole entry, looked up): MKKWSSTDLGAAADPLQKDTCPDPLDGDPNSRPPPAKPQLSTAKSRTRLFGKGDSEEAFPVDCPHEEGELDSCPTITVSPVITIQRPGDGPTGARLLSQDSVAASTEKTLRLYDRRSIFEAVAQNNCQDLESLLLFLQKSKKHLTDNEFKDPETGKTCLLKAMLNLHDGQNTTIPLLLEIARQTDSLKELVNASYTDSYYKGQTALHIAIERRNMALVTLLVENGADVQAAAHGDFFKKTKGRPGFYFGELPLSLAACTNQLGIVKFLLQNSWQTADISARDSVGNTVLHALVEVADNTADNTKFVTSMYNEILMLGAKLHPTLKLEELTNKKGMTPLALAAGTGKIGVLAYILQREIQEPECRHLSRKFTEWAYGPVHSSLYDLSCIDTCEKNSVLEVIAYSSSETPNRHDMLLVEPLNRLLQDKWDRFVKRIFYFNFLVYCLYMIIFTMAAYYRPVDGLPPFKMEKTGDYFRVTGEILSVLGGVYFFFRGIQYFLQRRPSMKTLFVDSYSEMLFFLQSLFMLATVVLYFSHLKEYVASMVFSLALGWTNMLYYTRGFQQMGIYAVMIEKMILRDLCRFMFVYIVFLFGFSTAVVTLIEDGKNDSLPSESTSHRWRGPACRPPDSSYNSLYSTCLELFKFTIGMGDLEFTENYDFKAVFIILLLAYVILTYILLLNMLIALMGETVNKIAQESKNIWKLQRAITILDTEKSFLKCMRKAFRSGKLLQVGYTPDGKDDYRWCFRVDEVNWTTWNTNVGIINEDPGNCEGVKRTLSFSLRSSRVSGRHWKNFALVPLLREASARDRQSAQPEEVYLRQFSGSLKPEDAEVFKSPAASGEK
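Cells expressing TRPV1 were dye-loaded with Fluo-8 and read kinetically: 10 s baseline, 3 min after compound (agonist portion), then 2 min after EC20 capsaicin (allosteric enhancer portion). Calcium-bound dye fluorescence at 480/520 nm.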
PINK1 expr mod: A Quantitative High throughput Screen to Identify Chemical Modulators of PINK1 Expression. PINK1 immunofluorescence, high-content cytometry, 24 h. Potency, µM (top dose mostly 76.6 µM), for inactives: top-dose activation (PINK1 increase), hits mostly activators. actives 0.2% (n = 410,000); active = well fitted activation curve with a large enough effect; inconclusive = small, poorly fitted or top-dose-only effect; inactive = flat fitted curve, though single readings scatter; cell line not stated here;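 further: potency means the concentration at half of the fitted maximal effect; % of control where 0% means no effect; nearly all actives have a fitted effect of over 65% in size; a mitochondrial uncoupler was the plate control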
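Readout is PINK1 immunofluorescence, quantified alongside mitochondrial, cell and nuclear markers by laser-scanning microplate cytometry. Cells from a stable line were exposed to compound titrations (5 concentrations) for 24 hours, with CCCP controls.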
TRPML1 blocker: qHTS for Inhibitors of the Human Mucolipin Transient Receptor Potential 1 (TRPML1); activity change, negative = inhibition, % (concentration not given with the values); AID 624415, 2012; TRPML1-inducible cells, Ca2+ dye fluorescence, FDSS; hits give low values; inhibition of EC80 agonist-evoked calcium signal; Mucolipin-1 (Homo sapiens), Q9GZU1; actives 0.02% (n = 390,000); in the data active means activity change below about -50%; inconclusive means about -30% to -50%; inactive means above about -30%;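 further: stimulus is agonist 54-4 at its EC80 concentration; on the % scale 0 is the no-effect control and ±100 the full control effect; compound concentration not given in the record; the text of the record puts the active cut at -80%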
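TRPML1-DL cells, Tet-induced overnight (~16 h, 37 °C) at 1,500 cells/well, were loaded with Ca8 no-wash dye plus quencher for 45-90 min at room temperature. Compounds were pinned during FDSS kinetic reading; agonist 54-4 at EC80 (4 uM final) then added.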
Sfp inh: qHTS Assay for Inhibitors of Bacillus subtilis Sfp phosphopantetheinyl transferase (PPTase); 4'-phosphopantetheinyl transferase ffp (Bacillus subtilis), Q9F4F7; Biochemical Sfp PPTase activity, qHTS; Potency, µM, for inactives: max response, negative = inhibition, actives largely listed as inhibitors; actives 3.5% (n = 310,000); AID 1490, 2009; active means well fitted inhibition curve with a large enough effect; inconclusive means small, poorly fitted or top-dose-only effect, or another doubt; inactive means no such curve, though single readings can be large or run the other way;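 further: the enzyme is Sfp with the accession as filed and its product quenches rhodamine fluorescence; potency means the concentration at half of the fitted maximal effect; 0% = enzyme reaction without inhibitor and -100% = no enzyme wells; top concentration of the series not given in the record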
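Compounds were incubated with enzyme (final 15 nM) for 15 min at room temperature before substrate addition started the reaction. Fluorescence at 525 nm excitation, 598 nm emission was recorded immediately and after 30 minutes.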
* marks the source's active call; other numbers are inactive results; ? = inconclusive; nt = no result given; & = joins results of further samples; [ ] = remark or other dose. No enrichment for hits, and some 4.4% of all compounds hit somewhere here.

SMILES	TRPML1 agonist	Menin-MLL FL inh	ClpP mod	TRPV1 PAM	PINK1 expr mod	TRPML1 blocker	Sfp inh
O=C1C(Cl)=C(Nc2ccc3cn[nH]c3c2)C(=O)c2ccccc21	2.2	3.1	nt	-28.6	-3.8%	25.5	8.91µM*
O=C(NCc1cccs1)c1nc2ncccn2n1	-0.5	-0.1	0.4%	6.1	-1.4%	3.9	-0.2%
CCc1nnc(NC(=O)C2CCN(C(=O)c3ccccc3C)CC2)s1	0.8	nt	1.4%	-2.0	0.0%	-9.9	nt
O=C(CCCn1c(=O)[nH]c2ccccc2c1=O)NCCSCc1ccccc1	-0.6	-1.2	nt	-7.9	2.2%	12.0	13.7%
O=C1c2ccccc2C(=O)N1CCOCCN1C(=O)c2ccccc2C1=O	-1.3	2.9	-1.5%	4.8	-2.4%	24.2	10.4%
Nc1ccc(S(=O)(=O)c2ccc(N)c(N)c2)cc1	1.3	-2.4	nt	3.9	-2.0%	6.4	12.7%
Cc1ccc2c(c1)Sc1c(ccc3ccccc13)N2	1.8	?	38.6%	nt	2.1%	-3.6	-13.1%
CC12CCC(=O)N1C(C(=O)Nc1ccccc1N1CCCCC1)CS2 (stereo not drawn)	1.8	nt	-7.3%	-10.3	0.2%	-8.9	nt
Cc1cc2nc(-c3ccc(OCc4ccccc4Cl)cc3)cc(C(F)(F)F)n2n1	0.5	nt	3.3%	nt	-1.5%	16.1	nt
Cn1ccc(C(=O)Nc2sc3c(c2C(N)=O)CCCCC3)n1	0.6	nt	-0.9%	21.5	0.2%	7.0	31.6µM*
COc1cc(C(=O)Nc2ccc(C(=O)NCC3CCCO3)cc2)cc(OC)c1OC (stereo not drawn)	-0.4	-2.7	-0.6%	-1.2	0.4%	4.8	11.1%
CCN1CCN(Cc2ccc(NC(=O)c3cc(NC(=O)c4ccno4)cc(OC)c3)cc2C(F)(F)F)CC1	1.4&-0.5	4.5	1.1%&-0.1%	-27.4	1.4%&1.1%	4.9&34.2	10.4%
CC(=O)c1ccc(N2C(=NC(=O)COc3ccccc3)SC3CS(=O)(=O)CC32)cc1 (stereo not drawn)	-0.1	nt	1.2%	5.3	2.3%	-0.4	16.2%
COc1ccc(C(=O)COC(=O)CCS(=O)(=O)c2ccc(C)cc2)c(OC)c1	2.6	nt	1.5%	-0.5	0.3%	3.2	nt
CCC1=C(OC(=O)N(CC)CC)N2C(=O)OC(=NCCc3c[nH]c4ccccc34)[C@]2(Cc2ccccc2)[C@H]2C1=CC[C@H]1C(=O)N(CC)C(=O)[C@H]12	-0.2	-0.2&-1.5	0.0%	-13.4	-0.4%	-8.0	13.6%&6.0%
CCOC(=O)CCn1cnc2onc(-c3ccccc3Cl)c2c1=O	-0.7	nt	-0.2%	nt	1.0%	19.1	nt
CN(CC(=O)Nc1ccccc1Cl)C(=O)Cn1cc(C(F)(F)F)ccc1=O	1.3	nt	0.4%	-20.9	-1.1%	-7.1	nt
CC(C)c1ncc(C(O)c2cccc3ccccc23)n1C (stereo not drawn)	-0.2	-1.8	-1.8%	1.1	-1.2%	-7.5	5.9%
COCc1ccc(O)c2ncccc12	-0.6	5.5	0.8%	3.9	1.0%	3.1	-3.0%
C1CC1C(=NN=C(C1CC1)C1CC1)C1CC1	0.8	nt	nt	nt	3.2%	-16.6	nt
CCCCN(C(=O)c1nn(C)c(=O)c2ccccc12)c1c(N)n(CCC)c(=O)[nH]c1=O	-0.4	nt	0.3%	-5.5	2.9%	1.6	nt
CC(C)(C)OC(=O)NCCCCc1cn(CC(=O)N2CCN(C(=O)OC(C)(C)C)CC2)nn1	1.3	-2.9	0.5%	?	-0.5%	5.7	-5.3%
CCn1c(-c2ccc(F)cc2)cnc1SCC(=O)N1CCc2ccccc21	nt	1.3	nt	-7.4	nt	nt	4.4%
Brc1ccc(N=Cc2ccccn2)cc1	0.2	2.1	1.4%	-7.2	2.6%	18.6	4.6%
COc1ccccc1C(=O)NC(=O)COC(=O)c1ccc([N+](=O)[O-])cc1	1.2	nt	-3.1%	-1.8	-5.7%	7.9	nt
COc1cccc(C2=NOC(C(=O)NCc3ccc(F)cc3)C2)c1 (stereo not drawn)	0.3	-0.3	-2.1%	23.1	6.1%	-8.9	0.6%
Cc1ccc(C(=O)N2CCOCC2)cc1S(=O)(=O)N1CCCCC1	1.2	nt	1.5%	-4.2	?	-2.3	11.1%
Cc1n[nH]c(C)c1Sc1ccccc1N	0.4	0.4	nt	7.5	2.3%	4.2	4.7%
CCOC(=O)c1[nH]c(C)c(C(=O)OCC(=O)N2CC(=O)Nc3ccccc32)c1C	-0.6	4.2	-1.5%	11.8	-1.7%	2.2	5.5%
COc1ccc2cc3cc(C(=O)NCc4ccccc4OC)oc3nc2c1	-0.1	nt	3.6%	nt	4.0%	49.1	nt
N#Cc1ccc(CSc2nnc3ccccn23)cc1	0.2	0.2	0.7%	-7.6	0.9%	1.7	12.1%
CN(C)N1C(=O)/C(=C/c2ccco2)SC1=Nc1ccccc1	-0.1	nt	-2.1%	nt	1.6%	-0.2	nt
COc1ccc(CC(=O)OC(C)C(=O)c2ccc(C)cc2)cc1 (stereo not drawn)	2.6	nt	1.3%	7.7	-0.7%	25.7	-1.8%
COCCCN1C(=O)C(=O)/C(=C(/O)c2ccc(S(=O)(=O)N3CCCCC3)cc2)C1c1ccc(O)c(OC)c1 (stereo not drawn)	-0.2	nt	nt	-2.5	-0.7%	-3.1	-2.3%
O=C(Nc1cccc2c1CCCC2)c1cc(C2CCCCN2C(=O)c2cccs2)on1 (stereo not drawn)	-0.2	nt	1.8%	nt	2.5%	nt	nt
CCC12CSc3nc(Cl)ccc3N1C(=O)C(=O)N2C (stereo not drawn)	2.9	-1.0	-2.4%	11.4	0.2%	10.4	1.5%
COc1ccccc1-c1ccc(=O)n(CC(=O)NC2CCc3ccccc32)n1 (stereo not drawn)	-0.2	-5.1	-2.2%	-15.4	2.2%	-6.8	35.5µM*
CC(=O)OCC(=O)c1ccc2ccn(C(C)=O)c2c1	3.0	5.0	35.5µM*	2.1	3.4%[38.3 µM]	-5.2	20.2%
COc1ccc(C(=O)NCCNc2nc3c(C)cccc3cc2C#N)cc1OC	-0.1	2.2	4.5%	5.2	0.2%	-6.2	7.9%
CC(=O)N(c1cccc(Cl)c1)c1nc(C)cc(C)c1C#N	0.7	1.6	0.3%	10.5	-0.4%	-23.7	9.4%
Cc1cc(CN2CCN(CC(=O)Nc3cc(C(F)(F)F)ccc3-n3cncn3)CC2)no1	0.3	nt	-0.2%	7.8	11.0%	12.9	nt
CCOc1ccc(Oc2nc(NCC(C)C)nc(NC(C)(C)C)n2)nn1	2.0	nt	0.7%	nt	2.3%	2.4	nt
O=C1[C@@H]2CSC(c3ccc(Cl)cc3)N2C(=O)N1c1ccccc1 (stereo partly drawn)	2.2	nt	-1.3%	nt	4.5%	-11.5	nt
O=C(NCc1cccnc1)c1sc2cc(Cl)ccc2c1Cl	-0.2	2.0	-2.8%	?	-1.4%[38.3 µM]	-7.5	-1.6%
CN(CCNC(=O)c1cn(C)c2ccc(S(=O)(=O)N3CCCC3)cc2c1=O)CCc1ccccc1	-0.2	1.9	1.5%	1.9	nt	18.9	9.9%
Cc1ccccc1NC(=O)CCNS(=O)(=O)c1cccc2nsnc12	-0.5	1.5	nt	5.4	0.1%	6.6	8.7%
CN(C)S(=O)(=O)c1ccc(C(=O)OCc2ccc(C#N)cc2)cc1	-0.1	-0.8	0.0%	-9.9	0.6%	11.5	5.3%
COc1ccc(CCN2C(=O)CN(C3CCC(C)CC3)C(=O)C2c2ccc(OC(C)C)c(OC)c2)cc1OC (stereo not drawn)	1.2	nt	2.6%	nt	0.9%	23.1	nt
Cc1nc2cnc(Nc3ccccc3)nc2n(Cc2ccc(F)cc2)c1=O	nt	?	nt	nt	0.6%	nt	-11.3%
CCCCCCn1c(N2CCN(c3cccc(Cl)c3)CC2)nc2c1c(=O)[nH]c(=O)n2C	2.2	-6.1	1.0%	-6.8	5.5%	17.8	?
CCOC(=O)C1CCCN(S(=O)(=O)c2ccc(S(=O)(=O)N3CCCC3)cc2)C1 (stereo not drawn)	1.6	nt	-0.3%	-8.2	22.3%	5.5	nt
Cc1ccc(N(CC(=O)N2CCCCCC2)S(C)(=O)=O)c(C)c1	-0.1	nt	-2.3%	nt	-1.1%	3.3	nt
Cc1cccc(OC(C)C(=O)Nc2cc(S(=O)(=O)N3CCCCC3)ccc2C)c1 (stereo not drawn)	2.8	nt	-2.5%	1.7	6.2%	19.4	nt
COc1ccc(-n2c(SCC(=O)Nc3nc(C)cs3)nnc2-c2ccoc2C)cc1	1.3	1.6	0.4%	?	-0.9%	9.6	-2.9%
Cc1cc(C)c2nc(N3CCCC(C(=O)NCc4cccc(Br)c4)C3)sc2c1 (stereo not drawn)	0.2	nt	-4.8%	nt	-0.1%	26.2	nt
O=S(=O)(c1ccccc1C(F)(F)F)N1C=CC(C(F)(F)F)=NCC1	-0.3	-3.2	-0.5%	10.4	1.2%	23.1	9.8%
CN(C)S(=O)(=O)c1cccc(C(=O)OCC(=O)c2c(N)n(C)c(=O)n(C)c2=O)c1	0.0	1.3	-3.2%	27.0	2.7%	4.2	-0.4%
CC1Cc2ccccc2N1C(=O)/C=C/c1cccc(F)c1 (stereo not drawn)	1.6	-0.7	nt	-13.9	0.4%	10.4	?
Cc1ccccc1S(=O)(=O)Cc1ccc(C(=O)NC(C)c2ccccc2)o1 (stereo not drawn)	0.9	-4.8	-3.4%	13.9	-0.2%	?	14.3%
CC1CN(C)C(C)CC1NCc1ccc2c(c1)OCO2 (stereo not drawn)	-0.4	0.1	-0.7%	-2.3	0.0%	26.9	6.6%
